Source: PubChem BioAssay
D2 PAM: positive allosteric modulators of human D2 dopamine receptor | P14416 | DiscoveRx D2 beta-arrestin cells, luminescence, 90 min; 100% = 57 uM dopamine signal | potentiation, % (no concentration beside the values) | 360,000 compounds, 0.23% hits; active = potentiation of 50% or more; inconclusive = 30% to 50%; inactive = 30% or less;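 also: compound concentration not given in the record; tested on top of an EC20 dose of dopamine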
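D2 cells co-treated with compound plus 50 nM dopamine (EC20) for 90 min at 37 deg C to detect potentiation. Beta-arrestin recruitment was read as enzyme-fragment luminescence after 1 h at ambient temperature. Full response was set by 57 uM dopamine.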
Six1-Eya2 blk: Six1/Eya2 interaction inhibition | AlphaScreen GST-Six1/His-Eya2 binding, biochemical; stronger effect = lower value; control for the full effect not named in the record | AID 651725 | activity change, % (concentration not given with the values) | Q15475+O00167 | 360,000 compounds, 0.56% hits; in the data active = activity change below about -65%; inconclusive = about -30% to -65%; inactive = above about -30%; also: % is scaled to controls: 0 for no effect and ±100 for the full control effect
Target sequence (O00167 whole entry, looked up): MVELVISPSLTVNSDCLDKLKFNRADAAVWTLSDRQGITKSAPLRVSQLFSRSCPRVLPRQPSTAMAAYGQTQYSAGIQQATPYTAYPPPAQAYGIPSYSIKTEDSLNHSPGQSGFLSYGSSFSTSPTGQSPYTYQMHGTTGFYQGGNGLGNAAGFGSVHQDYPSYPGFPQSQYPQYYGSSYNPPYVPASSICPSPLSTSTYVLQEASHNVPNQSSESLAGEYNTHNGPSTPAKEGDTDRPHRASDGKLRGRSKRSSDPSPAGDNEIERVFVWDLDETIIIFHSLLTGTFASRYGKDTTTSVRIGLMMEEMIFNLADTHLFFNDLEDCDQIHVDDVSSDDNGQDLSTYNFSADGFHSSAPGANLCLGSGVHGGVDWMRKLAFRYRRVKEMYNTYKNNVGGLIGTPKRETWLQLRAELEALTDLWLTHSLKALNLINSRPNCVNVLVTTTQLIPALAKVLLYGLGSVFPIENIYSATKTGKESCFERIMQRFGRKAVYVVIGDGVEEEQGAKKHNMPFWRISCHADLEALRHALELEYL
Target sequence (Q15475 whole entry, looked up): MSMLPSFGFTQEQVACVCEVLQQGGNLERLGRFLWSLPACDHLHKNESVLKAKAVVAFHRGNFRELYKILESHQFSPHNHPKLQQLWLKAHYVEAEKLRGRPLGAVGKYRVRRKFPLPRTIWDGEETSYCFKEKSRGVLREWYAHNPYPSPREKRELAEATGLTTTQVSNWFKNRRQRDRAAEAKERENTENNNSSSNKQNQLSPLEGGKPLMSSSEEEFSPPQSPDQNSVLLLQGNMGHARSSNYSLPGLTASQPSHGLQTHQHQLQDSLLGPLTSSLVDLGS
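Homogeneous AlphaScreen proximity assay pairing GST-Six1 with His-tagged Eya2 (added as 5X mix: 250 nM and 500 nM) in 50 mM Tris pH 8.0, 300 mM NaCl, 1 mM TCEP. Glutathione donor and nickel acceptor beads; 1 h, 37 °C, dark.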
gsp antagonist: antagonists of gsp mutant (McCune-Albright syndrome). gsp-mutant cells, cAMP HTRF, 30 min; control for the full effect not named in the record. Potency, µM (series often up to 76.9 µM), inactives show at the highest dose activity change, negative = inhibition, hits mostly inhibitors. 340,000 compounds, 0.4% hits; active = falling curve of any shape with a large fitted effect; inconclusive = falling curve, mostly with a smaller effect; inactive = flat or rising curve; cell line not stated here;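 also: intracellular cAMP measured with PDE inhibitor Ro 20-1724 present during compound exposure; potency is read from the fitted curve at half-maximal effect; % is scaled to controls: 0 for no effect and ±100 for the full control effect; nearly all actives have a fitted effect of over 65% in size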
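HTRF cAMP read-out (cAMP-d2 plus anti-cAMP antibody-K in lysis buffer, 30 min RT). Before lysis, cells are exposed to compounds with […] for 30 min at 37C in DPBS containing Ca/Mg, BSA and Tween 20.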
CtBP-E1A inh: inhibitors of CtBP/E1A interaction; AlphaScreen GST-E1A/His-CtBP binding, 1536-well; stronger effect = lower value; control for the full effect not named in the record; activity change, % (concentration not given with the values); 340,000 compounds, 0.49% hits; AID 651724; in the data active means activity change below about -65%; inconclusive means about -30% to -65%; inactive means above about -30%; also: % is scaled to controls: 0 for no effect and ±100 for the full control effect
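AlphaScreen with 125 nM GST-E1A and 125 nM His-CtBP (5X stocks) in Tris pH 8.0, 300 mM NaCl, BSA, Tween 20, TCEP. Compounds preincubated 2 h at 37 deg C, then glutathione donor/nickel acceptor beads added for 1 h at 37 deg C in dark.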
gsp ag: activates gsp, the McCune-Albright syndrome mutation; gsp mutant cells, cAMP HTRF, 30 min; control for the full effect not named in the record; Potency, µM (doses to about 76.9 µM), inactives show at the top dose activation (cAMP increase), usual class: activators; 340,000 compounds, 0.13% hits; AID 624287; active = well fitted activation curve with a large enough effect; inconclusive = small, poorly fitted or top-dose-only effect, or another doubt; inactive = no such curve, though single readings can be large or run the other way; cell line not stated here;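 also: phosphodiesterase inhibitor Ro 20-1724 added with compounds to block cAMP breakdown; potency is read from the fitted curve at half-maximal effect; nearly all actives have a fitted effect of over 60% in size; about a fifth of the inactives were tested at one dose only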
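Cells stably selected in G418 were plated at 2000/well, grown 16-24 hr, then given compounds in DMSO with the PDE inhibitor […] (300 uM solution added) for 30 min at 37C; cAMP was read by HTRF.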
D2 agonist: activates the human D2 dopamine receptor | DiscoveRx PathHunter D2 beta-arrestin, luminescence, 90 min; 100% = 57 uM dopamine signal | activation, % (no concentration beside the values) | 360,000 compounds, 0.084% hits | AID 624465; in the data active = activation above about 40%; inconclusive = about 15% to 40%; inactive = below about 15%; also: compound concentration not given in the record; the text of the record calls up to 30% inactive
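Agonist mode: compounds alone added to overnight-plated D2 PathHunter cells for 90 min at 37 C, with 57 uM final dopamine (EC100) defining full response. Beta-arrestin recruitment detected by chemiluminescent reagent, read after 1 h at ambient temperature.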
The depositor's hits bear a star; ? = inconclusive; · = not tested or not shown; [ ] = another dose, or the depositor's remark.

D2 PAM | Six1-Eya2 blk | gsp antagonist | CtBP-E1A inh | gsp ag | D2 agonist | SMILES
-3 | -5 | 0% | -4 | 28% | 2.0 | CN1C(=O)C(C)(C)c2cc(S(=O)(=O)N3CCN(c4cccc(Cl)c4)CC3)ccc21
2 | 5 | 0% | 9 | 26% | -8.9 | CC(=O)Nc1cccc(NC(=O)c2csc(C)c2)c1
-5 | ? | 0% | -1 | -31%[inhibitor] | -4.6 | C=C(C)c1cccc(C(C)(C)NC(=O)N2CCN(c3ncccn3)CC2)c1
6 | 7 | 6% | -2 | 0% | -1.0 | Cc1nc2ccccc2cc1C(=O)O
-4 | 1 | 5% | 27 | -1% | -2.1 | Cn1cccc1C(C(=O)NC1CCCCC1)N(C(=O)Cc1cccs1)C1CC1 (stereo not drawn)
-14 | -8 | ? | -2 | 8% | 1.7 | O=S(=O)(Nc1ccc2c(c1)OCCO2)c1ccc2oc3ccccc3c2c1
0 | 1 | -4% | 4 | 13% | -2.2 | COc1ccc(N2C(=O)CC(SCC(=O)O)C2=O)cc1 (stereo not drawn)
-5 | 7 | · | 6 | · | -4.3 | CC1(C(=O)Nc2ccc3c(c2)OCCO3)CCC(=O)N1CCOc1ccccc1 (stereo not drawn)
-8 | 4 | 5% | 7 | -9%[15.4 µM] | -1.1 | Cc1noc(C)c1C(=O)Nc1nnc(CC(C)C)s1
3 | 10 | ? | 15 | 8% | -2.1 | O=c1c(-c2nnc(SCc3ccc(Cl)cc3Cl)o2)cccn1Cc1ccccc1
-15 | -1 | 5% | 3 | ? | -8.4 | O=C(/C=C/NNC(=O)c1ccccc1)c1ccccc1
-20 | 1 | 3% | -10 | -20% | 0.8 | COc1ccc(CNC(=O)CN(C(=O)Cn2nnc(-c3ccccc3F)n2)c2ccc(C)cc2)cc1
-9 | -7 | -5% | -28 | 2% | -6.9 | COC(=O)c1ccc(/C=C(\C#N)C(=O)NC(C)c2ccccc2)cc1 (stereo not drawn)
-8 | -11 | -20% | -4 | · | 1.0 | FC(F)(F)c1ccc(CN2C[C@@H]3C(c4ccccc4)C4(c5cccnc5)CC3(C4)[C@H]2c2ccccc2)cc1 (stereo partly drawn)
-8 | 3 | -9% | 12 | 16%[15.4 µM] | -3.2 | CC(C)OCCCNC(=O)CN1CCN(Cc2ccc(Cl)cc2)C1=O
-3 | 4 | -19% | 7 | -9% | -0.4 | Cc1cc(/C=C(/C#N)C(=O)Nc2ccccc2)c(C)n1-c1cccnc1
7 | 3 | 2% | 2 | 9% | 0.4 | CCOC(=O)C(/C=C(\C#N)C(=O)OCC)=C(/N)N1CCN(c2c(C)cccc2C)CC1
-3 | 3 | -24% | 3 | -3% | -1.3 | Cc1cccc(NC(=O)C(C)Oc2ccccc2C)n1 (stereo not drawn)
-7 | 5 | 8% | 0 | -20%[15.4 µM] | -18 | Cc1ccccc1NC(=S)NC(C)CCc1ccccc1 (stereo not drawn)
-11 | 0 | -5% | -4 | 16% | -0.3 | Cc1cccc(N(C(=O)c2cnc3n(c2=O)CCS3)C2CCCCC2)c1

One compound at a time, as listed above.
Entry for `CC(C)OCCCNC(=O)CN1CCN(Cc2ccc(Cl)cc2)C1=O` → D2 PAM: -8; Six1-Eya2 blk: 3; gsp antagonist: -9%; CtBP-E1A inh: 12; gsp ag: 16%[15.4 µM]; D2 agonist: -3.2
Entry for `Cc1nc2ccccc2cc1C(=O)O` → D2 PAM: 6; Six1-Eya2 blk: 7; gsp antagonist: 6%; CtBP-E1A inh: -2; gsp ag: 0%; D2 agonist: -1.0

The listing picks up, starting two compounds before the break.
D2 PAM | Six1-Eya2 blk | gsp antagonist | CtBP-E1A inh | gsp ag | D2 agonist | SMILES
-7 | 5 | 8% | 0 | -20%[15.4 µM] | -18 | Cc1ccccc1NC(=S)NC(C)CCc1ccccc1 (stereo not drawn)
-11 | 0 | -5% | -4 | 16% | -0.3 | Cc1cccc(N(C(=O)c2cnc3n(c2=O)CCS3)C2CCCCC2)c1
17 | -8 | -24% | -2 | 0%[15.4 µM] | 0.7 | O=[N+]([O-])c1ccc(C(O)CN=Cc2ccc(O)cc2O)cc1 (stereo not drawn)
-3 | 0 | 2% | 9 | 5% | -2.5 | CCNC(=O)c1c(NC(=O)C2COc3ccccc3O2)sc2c1CCCC2 (stereo not drawn)
-4 | 4 | 4% | 5 | 1% | -1.1 | CCCN1CCN(C(=O)c2cn(CC(C)C)c(=O)c3cc(OC)c(OC)cc23)CC1
-9 | -1 | 0% | · | -3% | -2.2 | CCOC(=O)COc1coc(CN2CCN(c3cccc(Cl)c3)CC2)cc1=O
-3 | 13 | -29% | 4 | 10%[15.4 µM] | -2.8 | COc1cc2c(cc1OC)CN(C1CC(=O)N(c3c(C)cccc3C)C1=O)CC2 (stereo not drawn)
-4 | 11 | · | 6 | · | -2.2 | CC1(C(=O)O)CCCN(C(=O)C2(c3ccc(Cl)cc3)CCCC2)C1 (stereo not drawn)
4 | -8 | -12% | 0 | -2%[15.4 µM] | -0.1 | Cc1cc2c(=O)oc(-c3ccc(F)cc3)nc2s1
-1 | 3 | -11% | -3 | 1% | 2.3 | O=C(COc1ncnc2ccccc12)c1ccc2c(c1)OCCO2
-1 | -1 | -9% | -5 | -13% | -3.2 | O=C(COC(=O)c1ccccc1O)Nc1ccc(N2CCOCC2)cc1
-2 | -9 | -4% | -8 | 1% | 1.5 | Cc1nnc(NN)n(N)c1=O
17 | 15 | 5% | 38 | -25% | ? | CCOC(=O)C1CCN(Cc2cccc(Oc3ccc(Cl)cc3)c2)CC1
-9 | 4 | 4% | 0 | · | -2.1 | COc1cc(O)c(CCO)c2c1C(=O)C[C@@H](C)O2
-18 | -14 | -9% | -7 | -13% | -9.2 | COc1ccc(Cl)cc1NC(=S)NNC(=O)C1(C)CC1(Cl)Cl (stereo not drawn)
-6 | -2 | 0% | -5 | -6%[15.4 µM] | -5.7 | COc1ccc(N2CC(C(=O)Nc3nc(-c4ccccc4)c(C(C)=O)s3)CC2=O)c(OC)c1 (stereo not drawn)
-1 | 0 | 0% | 1 | -48% | -2.6 | CCOC(=O)C(C)Oc1cccc2c(=O)n(CC(=O)Nc3cccc(OC)c3)ccc12 (stereo not drawn)
-35 | -70* | 0% | -68* | 30% | -9.0 | CCN(Cc1ccccc1)c1ccc(N=Nc2nn(C)c(C)c2[N+](=O)[O-])cc1
-2 | 19 | 6% | · | 7% | -4.7 | CC1CN(CCc2ccccc2)c2nc3c(c(=O)n(C)c(=O)n3C)n2C1 (stereo not drawn)
-13 | -18 | ? | -8 | -1% | 2.7 | CC(=O)Nc1ccc(S(=O)(=O)N2CCN(c3cc4c(cc3[N+](=O)[O-])n(C)c(=O)n4C)CC2)cc1
-3 | 4 | 0% | 8 | -3% | 0.0 | COc1cc(NC(=O)CCC(=O)O)nc(OC)n1
-19 | -5 | 0% | 14 | -15% | -2.6 | Cc1cnc(NC(=O)c2ccc(F)c(S(=O)(=O)N3CCOCC3)c2)s1

More entries.
D2 PAM | Six1-Eya2 blk | gsp antagonist | CtBP-E1A inh | gsp ag | D2 agonist | SMILES
-1 | 0 | 3% | 6 | -1% | -5.4 | CCN(CC)C(=O)C(=O)c1cccn1-c1cccc(Cl)c1C#N
-2 | -7 | -6% | -1 | · | -1.6 | CCOC(=O)C1C(C(C)=O)=C(c2ccccc2)c2ccccc2N1S(=O)(=O)C(F)(F)F (stereo not drawn)
-11 | 5 | · | 6 | · | -3.6 | CC1(C(=O)NCc2cccc(C(F)(F)F)c2)CCN1Cc1ccc2ccccc2c1 (stereo not drawn)
-32 | 0 | -1% | 6 | ? | -6.1 | CC(=O)c1cccc(CN2CCN(Cc3ccc(C)cc3)C(CCO)C2)c1 (stereo not drawn)
-8 | 0 | -8% | · | 1% | 0.3 | CC1CCc2c(sc3ncn(CC(=O)N=Nc4c(O)[nH]c5ccccc45)c(=O)c23)C1 (stereo not drawn)
-7 | 3 | 11% | 8 | 1%[15.4 µM] | -2.1 | CCN(CC)CCNC(=O)Cn1c(=O)c2cccn2c2ccc(F)cc21
3 | 6 | -10% | 6 | · | 3.9 | CN(C(=O)c1ccc(NC(=O)Cc2ccc(NC(=O)C3CCCN(C(=O)C4CCCCC4)C3)cc2)cc1)C1CCCC1 (stereo not drawn)
2 | -2 | 6% | 8 | -9% | 0.9 | C[C@@H]1COC(=O)[C@@H](CC(=O)OC(C)(C)C)C/C=C\C[C@H](CC(=O)N(CCO)Cc2ccccc2)C(=O)N1
-2 | -3 | 0% | 11 | -4% | -6.2 | CC1(C)OC(=O)N2CCc3ccccc3C21C (stereo not drawn)
0 | 1 | -9% | 3 | ? | 8.1 | Cc1ccc(S(=O)(=O)N2CCN(C(=O)C3CC(=O)N(c4ccc5c(c4)OCCO5)C3)CC2)cc1 (stereo not drawn)
-2 | 0 | -1% | 6 | -11%[15.4 µM] | -4.8 | CCOc1ccc(Oc2cc(NC(=O)c3ccco3)cc([N+](=O)[O-])c2)cc1
-3 | -12 | -10% | 2 | -43%[inhibitor] | -2.9 | CC1(C)CC(=O)C/C(=N/Nc2nc3ccccc3s2)C1
-15 | 0 | 4% | -18 | ? | -7.0 | Cc1ccc(-c2nc(CN3CCCC(C(=O)N4CCOCC4)C3)c(C)o2)cc1 (stereo not drawn)
-16 | -3 | -6% | 0 | -2% | -1.4 | Cc1cccc(Nc2nnc(SCC(=O)NCc3cccs3)s2)c1
-17 | 3 | 1% | 8 | -39%[inhibitor] | 1.5 | O=C(CNC1CCCCCC1)Nc1ccc(S(=O)(=O)NC2CC2)cc1
-1 | 3 | 7% | 7 | -8% | -0.3 | CC(C)(C)c1ccc(C(=O)NNC(=O)Cc2ccccc2)cc1
1 | -1 | 4% | -7 | · | 0.1 | O=C(Cc1cccc(NC(=O)C2CCN(C(=O)C3CCC3)CC2)c1)Nc1cccc(C(=O)N2CCCC2)c1
-43 | -9 | -4% | 0 | · | -2.3 | O=C1[C@H](Cc2ccccc2)NCC=CC[C@H](c2ccc(Cl)cc2)N1Cc1ccccc1
-25 | -6 | -7% | -5 | 0% | -0.8 | COc1cc(/C=N/NC(=O)Cn2nc([N+](=O)[O-])cc2C)cc(Br)c1OCc1ccccc1
-16 | -11 | -21% | -6 | 7% | -0.9 | O=C(COc1ccccc1Cl)NC(=S)Nc1ccc(CN2CCOCC2)cc1

(list continues)
D2 PAM | Six1-Eya2 blk | gsp antagonist | CtBP-E1A inh | gsp ag | D2 agonist | SMILES
3 | 3 | -21% | 15 | 7%[15.4 µM] | 0.6 | Cc1cc(C)c(C#N)c(SCC(O)COc2ccc(Br)cc2)n1 (stereo not drawn)
-6 | 1 | 8% | 5 | ? | -2.4 | C[C@@H]1NC(=O)OC1c1ccco1 (stereo partly drawn)
-2 | -4 | -6% | 8 | 0% | -1.1 | Cc1ccc(OCc2nc3ccccc3n2C)cc1
-10 | -6 | · | -3 | · | -5.7 | CNc1ccc(-c2cc(OC)ccc2OC)cn1
-17 | -1 | 14% | 4 | -16% | 5.8 | COc1ccc(OC)c(C(=O)N2CCC(n3nccc3NC(=O)CC(C)C)CC2)c1
